Bioassay records (PubChem BioAssay)
PABP polyA inh: PABP poly(A) RNA binding inhibitors, primary screen, biochemical, fluorescence polarization, uHTS; Polyadenylate-binding protein 1 (Homo sapiens), P11940; inhibition, % at 35 µM; 1% of 290,000 active;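 active = 50% or more with normal probe brightness, or confirmed in later tests; inconclusive = above 50% with abnormal brightness, or retests that disagree; inactive = below 50% or failed in later tests; about a fifth of its hits are not listed in these tables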;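 also: calls also rest on retests at 20 µM and on dose response follow-up; controls were probe without protein and protein plus probe with vehicle; some compounds called inactive have numbers as strong as hits; many hits fall short of the cut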
MT1-MMP act inh: blockers of MT1-MMP proenzyme processing, primary screen, HT1080 RFP-PRO-GFP cells, GFP/RFP fluorescence | Matrix metalloproteinase-14 (Homo sapiens), P50281 | GFP/RFP ratio fluorescence, overnight; percent of plate control window, DMSO zero | GFP/RFP ratio change, % at 20 µM | 0.061% of 360,000 active;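 active = GFP/RFP ratio change of at least 30% with cell ATP level not reduced by more than half and red fluorescence within 50% of control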; also: strong numbers were not always called active
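Compound: 20 µM single dose, 1% DMSO / System: HT1080 RFP-PRO-GFP cells / Controls: DMSO and RFP-L50D-GFP cell wells / Read-out basis: GFP/RFP fluorescence ratio / Schedule: overnight compound exposure at 37 °C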
UUG fidelity: modulators of yeast start codon fidelity, primary screen, whole organism, S. cerevisiae, single point, plate reader; S. cerevisiae UUG-firefly luciferase reporter, luminescence/redox ratio; activity score, % at 18.7 µM; 0.13% of 350,000 active; AID 602363, 2012;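 active = replicate mean at a twofold rise or more, about +100% in these data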;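 also: firefly luciferase made from a UUG start codon reports start codon fidelity; reporter light over untreated wells divided by growth signal over untreated wells; some hits fall short of that in this replicate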
Env fusion inh: inhibitors of HIV-1 Env-driven cell-cell fusion, primary screen, HeLa-JRFL effector, CEM21 target cells, luciferase; inhibition, % at 12.3 µM; 1.1% of 360,000 active; AID 651610, 2012;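 active = mean replicate inhibition score of at least 50 and every replicate individually at or above 50; inconclusive = only one of the two criteria met; inactive = mean below 50 and not all replicates reaching 50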;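 also: 0% = plate neutral controls and 100% = maraviroc near 300 nM; one replicate is shown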
CSC inhib: cancer stem cell viability inhibitors, primary screen, luminescence. cancer stem cell-like cells viability. inhibition, % at 7.5 µM. 1.1% of 300,000 active. AID 2717, 2010;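 active = mean at 75% or more and at least half the replicates too; inconclusive = mean and replicates disagree; tested in HMLE shEcad cells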;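 also: 0% = median of negative and 100% = median of positive control wells; the first replicate is given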
eIF4H inh: human eIF4H binding inhibitors, primary screen, translation initiation inhibitor project, biochemical, uHTS, fluorescence polarization; AID 2012, 2009; Eukaryotic translation initiation factor 4H (Homo sapiens), Q15056; inhibition, % at 35 µM; 0.94% of 290,000 active; eIF4H fluorescence polarization binding assay;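 active = 50% or more with normal probe brightness, or confirmed in later tests; inconclusive = above 50% with abnormal brightness, or retests that disagree; inactive = below 50% or failed in later tests; about a fifth of its hits are not listed in these tables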;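 also: calls also rest on retests at 20 µM and on dose response follow-up; 0% = protein and probe with vehicle and 100% = probe without protein; strong numbers were not always called active; many hits fall short of the cut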
Rce1 inhib: yeast Rce1p protease inhibitors, primary screen, biochemical, fluorescence, cell-free homogeneous | calls only | yeast membranes, quenched prenylated peptide cleavage fluorescence | AID 2563, 2010 | 0.27% of 290,000 active | CAAX prenyl protease 2 (Saccharomyces cerevisiae (strain ATCC 204508 / S288c)), Q03530;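 active = fall in fluorescence gain of 50% or more versus controls, with final raw signal at or below 3038400; inconclusive = same 50% fall but final raw signal above 3038400; inactive = fall in fluorescence gain under 50%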;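 also: plate controls were neutral control wells for no effect and wells lacking membranes for full effect; tested at 10 µM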
Target sequence (Q03530 whole entry, looked up): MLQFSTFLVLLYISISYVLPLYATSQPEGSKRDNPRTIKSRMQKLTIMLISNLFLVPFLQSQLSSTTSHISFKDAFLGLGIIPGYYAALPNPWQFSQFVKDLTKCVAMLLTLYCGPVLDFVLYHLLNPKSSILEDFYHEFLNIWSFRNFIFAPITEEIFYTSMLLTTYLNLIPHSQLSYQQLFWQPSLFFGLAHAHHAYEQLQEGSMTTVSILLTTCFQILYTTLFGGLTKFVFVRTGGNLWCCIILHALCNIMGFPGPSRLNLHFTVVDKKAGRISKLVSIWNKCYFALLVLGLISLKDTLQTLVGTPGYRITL
eIF4H inh retest: also measured in eIF4H inh; calls as there; inhibition, %; compound at 20 µM; confirmation average;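 mean of two retest wells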
PABP polyA inh retest: also measured in PABP polyA inh; calls as there; inhibition, %; compound at 20 µM; confirmation repeats;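 mean of two retest wells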
MT1-MMP act inh RFP: also measured in MT1-MMP act inh; calls as there; RFP signal change, %; measured here: RFP expression control read;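 0 = vehicle wells; hits needed this value within 50% of zero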
* marks the source's active call; other numbers are inactive results; i = inactive; ? = inconclusive; . = not tested or not shown; & = joins results of further samples. Some of the compounds tested; rates above refer to the full screens.

SMILES	PABP polyA inh	MT1-MMP act inh	MT1-MMP act inh RFP	UUG fidelity	Env fusion inh	CSC inhib	eIF4H inh	Rce1 inhib	others
Cc1cccc2sc(NC(=O)CN3C(=O)NC4(CCCC4)C3=O)nc12	5	-1	-3	0	18	13	-3	i
O=Cc1cc(-c2ccccc2)[nH]c1-c1ccccc1	-6	1	-3	-8	-38	6	-2	.
CCOc1ccc(C(C)=O)cc1CN1C(=O)c2ccccc2S1(=O)=O	-4	-3	0	-20	2	-3	-8	i
CC1(C)CC(=O)C(C=NCCCN2CCCC2=O)=C(O)C1	13	3	3	-15	-16	2	0	i
O=C(CNC(=S)N(CCCN1CCOCC1)Cc1cccs1)N1CCOCC1	11	-3	5	-17	10	-7	2	i
Cc1ccccc1S(=O)(=O)N1[C@@H](c2ccc(Cl)cc2)C(C(=O)O)=CC[C@H]1c1ccc(Cl)cc1	.	.	.	-9	4	23	.	.
COc1ccc(NC(=O)CCC2COc3ccccc3O2)c(OC)c1 (stereo not given)	-2	-2	-1	1	.	-4	-16	i
COc1cccc(NC(=O)CSc2nc3ccccc3c(=O)n2CCCC(=O)NCCCN2CCOCC2)c1	5	2	6	-10	18	0	0	i
C=CCn1c(C)nnc1SCC(=O)c1c(N)n(C2CC2)c(=O)[nH]c1=O	.	4	6	0	2	.	.	.
CCc1ccccc1NC(=O)CNC(=O)c1n[nH]c(=O)c2ccccc12	.	-4	0	3	-9	-6	.	.
CCOC(=O)N1CCN(Cc2nc(N)nc(Nc3ccc(OC)cc3)n2)CC1	-2	2	1	-18	.	-14	2	i
CCc1ccc(-c2nc(CS(=O)CC(=O)NC3CCCCCC3)c(C)o2)cc1 (stereo not given)	-2	-4	5	-1	16	17	-6	i
Cc1ncc([N+](=O)[O-])n1Cc1ccccc1	14	3	3	-10	.	-15	-5	i
CCOC(=O)C(Sc1nnc2c3ccccc3n(CC)c2n1)C(=O)OCC	-4	-1	3	6	2	21	0	i
COc1cccc(CNC(=O)CNC(=O)c2cccs2)c1	4	-2	2	-8	-2	11	-16	i
COc1ccccc1-c1cc(C(=O)NCc2ccco2)no1	-10	0	1	-7	-47	-10	14	i
COC(=O)Cc1cc(=O)n2[nH]c(C)nc2n1	11	-3	-2	.	-99	1	6	i
CCCc1nnc(NC(=O)CCC(=O)O)s1	11	-1	2	-14	-1	-21	8	i
COc1ccc(C(C)(O)c2nc(-c3cccc(O)c3)cs2)cc1 (stereo not given)	.	-8	-10	-24	-55	.	.	.
O=C(CSc1ccc(Br)cc1)NC1CCCCCC1	.	5	-1	-2	20	4	.	.
O=Cc1cccc(OC(=O)c2ccc(Cl)cc2Cl)c1	-9	.	.	.	.	-14	-14	i
Cc1cc(-c2ccccc2)n2nc(C)c(-c3ccccc3)c2n1	-2	-2	-8	-6	.	-3	-2	i
CCNc1nc(NCC)n2c(SCC(=O)Nc3ccc(F)cc3)nnc2n1	.	-1	2	-1	.	-16	.	i
O=C(NCCCCc1ccccc1)C12CN(Cc3ccccc3)CC1C(c1ccc([N+](=O)[O-])cc1)=NO2 (stereo not given)	-1	5	-12	-14	19	-12	1	i
O=C(Cc1cc(=O)oc2cc(O)ccc12)NC(Cc1ccc(Cl)cc1)C(=O)O (stereo not given)	4	-2	-1	-8	-10	-10	-4	?
COC(=O)C1=C(C)NC2=C(C(=O)CCC2)C1c1ccc(-c2ccsc2C(=O)OC)o1 (stereo not given)	-3	.	.	.	26	-1	-6	i
CCOC(=O)c1c(NC(=O)CSc2nccc(=O)[nH]2)sc(C)c1C	18	2	-1	-14	-5	-12	-1	i
O=C(CNc1ccc2c(c1)OCO2)N/N=C\c1cn(Cc2ccccc2)c2ccccc12	-24	-6	-4	-22	13	34	34	i
Cc1cccnc1NC(=O)c1ccc(NS(=O)(=O)/C=C/c2ccccc2)cc1	.	4	-1	-19	.	6	.	i
CC(C)NC(=O)COc1ccc(OCc2ccccc2)cc1	3	3	0	.	-4	5	9	i
COc1ccccc1CCC(=O)Nc1ccc(S(=O)(=O)Nc2nccs2)cc1	.	-3	0	-11	-10	-9	.	i
Cc1ccc(S(=O)(=O)c2nc(NCCCn3ccnc3)sc2Cl)cc1	2	-1	-3	-12	.	.	-1	i
COc1cc(/C=N/NC(=O)CSc2n[nH]c(=O)[nH]c2=O)cc(OC)c1O	52*	-2	2	.	14	8	13	i	eIF4H inh retest=26;PABP polyA inh retest=62*
COc1cccc(NC(=S)NC(Cc2ccccc2)c2ccccc2)c1 (stereo not given)	.	3	-4	-4	20	.	.	.
O=C1C=C(c2ccc(C(=O)O)cc2)C[C@@H](c2ccc(F)cc2)C1	.	18	0	-8	-35	-7	.	.
O=C(Nc1nnc(S(=O)(=O)N2CCCC2)s1)c1ccccc1Cl	2	3	2	-6	-4	4	0	i
CC(C)COCC1CC2(CC(C)(c3csc(N)n3)OC2=O)C(=O)O1 (stereo not given)	0	6	4	-2&1	.	.	0	i
CS(=O)(=O)N(Cc1ccc(C(=O)NCc2ccco2)cc1)c1ccccc1	10	2	2	-15	.	0	8	i
NCCCC[C@H]1CNC(=O)C(=O)N1CCc1cccc2ccccc12	6	5	8	-11	1	-7	-5	i
COCc1cccc(-c2csc(C(O)c3cccc(OC)c3)n2)c1 (stereo not given)	.	-1	-11	-7	17	.	.	.
O=C(NCc1csc(-c2cccs2)n1)c1cccc(Cl)c1	1	1	-2	.	-7	-7	-6	i
CCOC(=O)C1CCN(S(=O)(=O)c2cccc(-c3cn4cccnc4n3)c2)CC1	7	-1	-14	-5	.	-14	-7	i
CSC1=C(C#N)C(c2ccc(C)s2)CC(=O)N1 (stereo not given)	0	2	4	-19	-4	2	0	i
CCc1nnc(NC(=O)c2ccc3ncsc3c2)s1	-2	-1	1	-26	-24	.	-4	i
COc1ccc(-c2ccc(-c3nc4c(c(=O)[nH]c(=O)n4Cc4ccccc4)n3C)o2)c([N+](=O)[O-])c1	-6	1	-4	-8	-6	.	42	i
COc1ccc(-n2c(C)cc(/C=C3/SC(=S)N(C)C3=O)c2C)cc1	-3	-56	-4	-9	12	31	6	i
Cc1[nH]c(=O)c(C(=O)c2cc(Cl)ccc2O)cc1C(=O)O	-14	-6	3	-8	-6	12	-2	i
O=C(c1ccco1)N1CCN(C2=NS(=O)(=O)c3ccccc32)CC1	-15	0	7	-20	.	6	-12	i

Two compounds drawn at random from those above:
SMILES	PABP polyA inh	MT1-MMP act inh	MT1-MMP act inh RFP	UUG fidelity	Env fusion inh	CSC inhib	eIF4H inh	Rce1 inhib	others
COC(=O)C1=C(C)NC2=C(C(=O)CCC2)C1c1ccc(-c2ccsc2C(=O)OC)o1 (stereo not given)	-3	.	.	.	26	-1	-6	i
COCc1cccc(-c2csc(C(O)c3cccc(OC)c3)n2)c1 (stereo not given)	.	-1	-11	-7	17	.	.	.

Going on with the list.
SMILES	PABP polyA inh	MT1-MMP act inh	MT1-MMP act inh RFP	UUG fidelity	Env fusion inh	CSC inhib	eIF4H inh	Rce1 inhib	others
COc1cc(OC)cc(C(=O)N[C@H](C(=O)NC2CCCc3ccccc32)C(C)C)c1 (stereo not given in full)	.	0	-8	.	50	12	.	.
COc1ccc(C(=O)N(C)[C@H]2C[C@H]3c4[nH]c5ccccc5c4CCN3C[C@H]2[C@H](C)O)cc1	.	-1	2	-11	-12	.	.	.
O=C(/C=C/Sc1ccccc1)c1ccc(Cl)cc1	1	-23	-8	.	.	102*	-8	i
CSc1ccc(CN(C)C(=O)COc2ccc(C(=O)c3ccccc3)cc2)cc1	0	2	5	-7	-12	-11	2	i
CCCn1c(=O)c2ccccc2n2c(SCc3cc(=O)oc4ccc5ccccc5c34)nnc12	-6	-1	1	-17	.	23	?	i
CC(=O)c1c(C)n([O-])c2cc(C)ccc2[n+]1=O	11	-1	0	-14	.	-10	3	i
Cc1cccc(C)c1NC(=O)CNC(=O)c1ccc(N2CCCC2=O)cc1	.	-2	3	-18	.	-1	.	.
CC(C)c1nc2oc3c(NCCO)ncnc3c2c2c1COC(C)(C)C2	-2	-1	2	6	6	-9	8	i
COc1ccc(CN2C(=O)N(c3ccc(OC)cc3)C(=O)C2CC(=O)Nc2ccccc2)cc1 (stereo not given)	9	0	-2	7	-39	-4	7	i
CSc1ncc(Cl)c(C(=O)Nc2cccc3ccccc23)n1	9	1	3	.	15	-6	-10	.
COc1ccc(C2(C)CC(C)(C)Nc3ccccc32)cc1 (stereo not given)	2	1	-1	-12	6	39	1	i
O=C(NS(=O)(=O)Oc1ccc(Cl)cc1)OC[C@@H]1CCCN2CCCC[C@H]12	11	-3	3	-6	16	10	-10	i
COCCCNC(=O)c1ccc(C(=O)NCCCOC)cc1	6	4	4	-9	5	-4	-4	i
CCOc1ccc(-n2c(SCC(=O)NC(C)CC)nc3n[nH]c(C)c3c2=N)cc1 (stereo not given)	-6	8	-3	-20	.	-5	-3	i
CCNC(=S)N(CCc1c(C)[nH]c2ccccc12)Cc1cccnc1	-12	1	-1	-25	-1	-2	3	i
CC(=O)Nc1ccc2c(c1)C(=Nc1ccc(C)cc1)c1ccccc1-2	.	1	1	7	-63	.	.	.
CC1CCN(S(=O)(=O)c2ccc(C(=O)N3CCCC(C(F)(F)F)C3)cc2)CC1 (stereo not given)	.	-2	-11	1	11	8	.	i
CC(=O)Cc1nsc(NC(=O)c2ccc(-c3cc(Cl)ccc3Cl)o2)n1	5	-7	-15	-9	-26	38	0	i
Cc1ccc(S(=O)(=O)N(CC(=O)Nc2cccnc2)c2ccc(Br)cc2)cc1	-8	0	-2	-7	3	-4	2	i
Brc1ccc2ncnc(NCc3ccccc3)c2c1	-7	-9	-32	-2	.	-10	-3	i
Cc1ccc(-n2c(C)cc(-c3csc(N)n3)c2C)cc1	15	-2	23	-10	-33	-2	?	i
O=C(NCC1CC1)c1ccc2nc([C@@H]3O[C@H](CO)[C@H](O)[C@H](O)[C@H]3O)[nH]c2c1	.	5	2	-19	-23	.	.	.
O=C(c1ccc2nc(Cc3cccc(Cl)c3)oc2c1)N1CCOCC1	7	1	1	2	-183	3	6	.
O=S(=O)(c1ccccc1)N1c2cc(Cl)ccc2Oc2nc3ccccc3nc21	6	-3	-2	-7	.	20	-11	i
O=C(COc1ccc(Cl)cc1Cl)Nc1nc2n(n1)C(c1ccccc1)CC(=O)N2 (stereo not given)	-6	2	0	0	-31	11	-2	i
Cc1cc(C)c(NC(=O)CN2C(=O)NC3(CCCCC3)C2=O)c(C)c1	-1	-3	3	9	.	.	-9	i
O=C(NNC(=O)c1cccs1)c1ccc(Br)o1	-15	3	6	.	-17	-9	-5	.
COC(=O)c1cn(NC(=O)C2CCC(C)CC2)c(=O)c2ccccc12 (stereo not given)	2	4	3	-15	6	-5	1	i
CC(C)C(=O)Nc1ccc(C(=O)NNC(=S)NC(=O)c2cccs2)cc1	-2	1	3	-34	.	9	14	i
CCCNC(=O)C(Cc1ccccc1C)NC(=O)c1ccc(C#N)cc1 (stereo not given)	.	1	5	-23	9	-7	.	.
CCOc1ccc(CCNC(=O)c2cc(-c3ccccc3)c(N3CCOCC3)s2)cc1	.	-4	-6	-18	19	-3	.	i
